# Calb FLC – C. albicans growth modulation with fluconazole; C. albicans CaCi-2 (fluconazole-resistant clinical isolate) + fluconazole, Alamar Blue growth, 48 h; 0.57% of 300,000 active; AID 1979; growth inhibition, % (test concentration not listed);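 active = most replicates above 75%; inconclusive = exactly half above 75%; inactive = most below 75%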;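 also: all wells also contain fluconazole at 8 µg/ml as a sub-toxic cotreatment; 0% = median of DMSO wells and 100% = median of geldanamycin control wells; wells of about 8 µL received 7.5 nL stock; the first replicate is given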
# Vif A3G – inhibitors of Vif binding to APOBEC3G peptide, primary screen, biochemical, TR-FRET, GST-Vif 1-94, biotin-A3G peptide, dose response retest (AID 1117319). TR-FRET GST-Vif / biotin-A3G peptide binding; higher % means a stronger effect; test concentration not given here; strong numbers were not always called active. one-dose inhibition, %; IC50 in µM for titrated hits. 0.57% of 260,000 active;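 active = above the screen mean plus three standard deviations and confirmed in dose response; inconclusive = results disagree or hit not tested in dose response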;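 also: Vif residues 1-94 fused to GST binding biotinylated APOBEC3G peptide 110-148; 0% = full assay without inhibitor and 100% = GST in place of GST-Vif; retest series ran down from 100 µM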
# Ecoli rRNA inh – selective bacterial rRNA inhibition in E. coli; E. coli WT GFP vs humanized-ribosome RFP mutants, fluorescence, 24 h; stronger effect = lower value; DMSO median 0, no signal -100; GFP signal change (wild-type ribosome), % (concentration not given with the values); 1.6% of 350,000 active;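 active = significant combined selectivity score with lowered wild-type GFP, culture density cut under 30%, mutant RFP and density less affected; inactive = any of these conditions unmet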; also: one replicate is shown; some compounds called inactive have numbers as strong as hits
# MLL AF4-AF9 inh – MLL-AF4/AF9 protein interaction inhibition; AlphaScreen, biotin-AF4 peptide binding to FLAG-AF9; 0.47% of 350,000 active; P42568; inhibition, % at 10 µM;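 active = every replicate reaching a set inhibition limit, whatever the replicate mean, cut at about 25% in these data; inconclusive = mean inhibition reaches that limit but some replicates miss it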;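 also: 0% = plate neutral control median and 100% = total signal loss; the record names both 10 and 1 µM as test concentration; the first replicate is given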
# Target sequence (P42568 whole entry, looked up): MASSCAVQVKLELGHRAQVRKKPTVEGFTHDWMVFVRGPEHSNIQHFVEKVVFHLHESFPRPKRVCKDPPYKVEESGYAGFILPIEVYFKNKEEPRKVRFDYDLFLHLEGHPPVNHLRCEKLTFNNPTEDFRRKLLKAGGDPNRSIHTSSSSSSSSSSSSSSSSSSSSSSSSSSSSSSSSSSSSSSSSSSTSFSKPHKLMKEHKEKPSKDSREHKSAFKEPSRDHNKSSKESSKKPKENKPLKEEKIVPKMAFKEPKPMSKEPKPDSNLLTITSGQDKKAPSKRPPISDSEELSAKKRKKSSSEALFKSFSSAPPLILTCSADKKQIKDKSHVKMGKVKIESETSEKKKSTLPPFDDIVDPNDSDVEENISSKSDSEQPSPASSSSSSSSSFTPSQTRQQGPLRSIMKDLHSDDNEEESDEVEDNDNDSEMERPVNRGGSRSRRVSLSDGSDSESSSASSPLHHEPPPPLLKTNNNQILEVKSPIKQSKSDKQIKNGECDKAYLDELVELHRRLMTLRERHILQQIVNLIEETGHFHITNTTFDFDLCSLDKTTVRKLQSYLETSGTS
# RanGTP-Impb inh – inhibitors of RanGTP-importin-beta interaction, primary screen, biochemical, FRET, CFP-Ran, YFP-importin-beta, homogeneous | cell-free CFP-Ran/YFP-importin-beta FRET ratio | inhibition, % (test concentration not listed) | 1.1% of 300,000 active;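 active = most replicates above 15%; inconclusive = exactly half above 15%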;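 also: 0% = DMSO wells and 100% = Ran loaded with GDP instead of GTP; wells of about 40 µL received 100 nL stock; the first replicate is given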
# Beta apoptosis – blocks beta cell apoptosis. INS-1E cytokine-induced death, ATP luminescence, 48 h; percent of positive-control rescue, neutral wells zero. protection from apoptosis, % (test concentration not listed). 0.8% of 300,000 active. AID 435005;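 active = all replicates at 75% or more, or half of them and the mean; inconclusive = half reach 75% but not the mean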;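 also: 0% = cytokine-treated negative control wells and 100% = positive control rescue; higher means more ATP so stronger rescue from cytokine killing; wells of about 40 µL received 100 nL stock; the first replicate is given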
# T cruzi inh – blocks replication of Trypanosoma cruzi. T. cruzi beta-gal in NIH3T3, luminescence, 90 h. inhibition, % (test concentration not listed). 1.4% of 300,000 active;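 active = mean inhibition across valid replicates above about 55%, limit read from the data; inconclusive = mean below that limit but half or more replicates reach it; inactive = mean below it, under half of replicates reach it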;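 also: signal also drops with host cell toxicity which is not excluded here; 0% = plate median of DMSO wells and 100% = zero luminescence signal; higher percent means less beta-gal luminescence so fewer parasites; stock transfer was 50 nL into about 50 µL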
# Bfl-1 A1 inh – inhibitors of the anti-apoptotic protein A1, read as caspase activation | MEF A1-2A-BIM cells, Caspase-Glo 3/7 luminescence, 3 h; percent of clofoctol response, vehicle zero | caspase activation, % (test concentration not listed) | 0.066% of 330,000 active;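 active = over half of replicate activation scores above 10%, or exactly half above 10 with the replicate mean above 10; inconclusive = replicate mean below 10 yet half the replicates above 10; inactive = over half of replicates below 10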;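 also: wells of about 30 µL received 50 nL stock; many hits fall short of the cut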
# Ecoli rRNA inh OD600 – recorded beside Ecoli rRNA inh, whose call it bears; OD600 change, %; measured here: OD600 growth;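 optical density of the mix in the first replicate; 0 = DMSO median and -100 = no signal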
# Ecoli rRNA inh RFP – second read-out of Ecoli rRNA inh, no call of its own (marks repeat the call); RFP signal change, %; measured here: RFP humanized mutant strains;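 first replicate; 0 = DMSO median and -100 = no signal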
# * hit, by the source's call; u = inconclusive; x = no result given; & = joins results of further samples.
canonical_smiles	Ecoli rRNA inh OD600	Ecoli rRNA inh	T cruzi inh	Ecoli rRNA inh RFP	MLL AF4-AF9 inh	Beta apoptosis	Calb FLC	Vif A3G	RanGTP-Impb inh	Bfl-1 A1 inh
CCCCOc1cccc(/C=C(\C#N)C(=O)NC2CC2)c1	x	x	11	x	0.0	0	4	4%	-2.6	1.1
O=C(Nc1ccc(F)cc1F)Nc1csc2ccccc12	-45	-40	6	29	x	13	-16	x	-0.8	0.1
Cc1ccc(CCNC(=O)CS(=O)Cc2nc(-c3cccs3)oc2C)cc1 (stereo unspecified)	-3	-10	3	0.6	10	-1	2	u	-4.4	-0.4
Cc1nnc(N/N=C/C2CC=CCC2)[nH]c1=O (stereo unspecified)	18	17	0	0.6	-1.3	x	-11	9%	0.5	-0.1
CNC(=O)NC(=O)COC(=O)/C=C/c1cccc(Br)c1	3	18	-3	1.5	0.6	-4	-13	3%	-1.3	0.5
Cc1[nH]c2ccccc2c1C(=O)CN1CCCC1	3	8	11	1.5	9.7	1	-1	-1%	4.4	0.2
O=C1c2ccccc2C(=O)C1c1nccc2ccccc12	x	x	17	x	x	33	2	-6%	-6.7	1.8
Cc1cccc(C(=O)Nc2ccc(S(=O)(=O)Nc3nc(C)cc(C)n3)cc2)c1	8	3	-7	-3.9	-1.3	1	0	x	0.3	0.7
CCN(CC)c1ccc(-c2n[nH]c(=S)n2-c2ccccc2C)cc1	-13	-13	17	6.6	-4.7	-4	1	x	0.0	0.2
O=C(c1ccc2c(c1)OCCO2)C1CCN(C(=O)Nc2ccccc2F)CC1	-21	-17	-5	3.0	-1.6	2	-7	x	2.8	0.0
CCSc1nnc(SCC(=O)NC2CCCCC2)s1	0	4	x	0.3	-7.4	-1	x	-4%	x	0.0
CCOC(=O)CNC(=O)CSc1nc(N)cc(N)n1	x	x	-15	x	x	1	-5	u	0.8	0.9
Cc1ccc(NC(=O)CN2C(=O)COc3ccc(S(=O)(=O)N4CCCC4)cc32)cc1C	1	-7	-9	-5.0	-7.0	-4	-8	x	-3.0	0.6
OC(CN1CCN(c2ccccc2F)CC1)c1ccc(F)cc1 (stereo unspecified)	9	2	18	-1.3	0.8	0	-3	-1%	-3.7	-1.0
COc1ccc(OC)c(NC(=O)COC(=O)CN2C(=O)NC3(CCCC3)C2=O)c1	5	6	x	-0.6	1.8	-8	x	x	x	-0.3
CC1CC(C)CN(C(=O)C(C)N2CCN(S(=O)(=O)c3ccccc3F)CC2)C1 (stereo unspecified)	-14	0	x	-1.1	2.1	-4	x	-3%	x	1.9
CCOC(=O)[C@H]1[C@H]2COc3ccc(Br)cc3[C@@H]2N2C(=O)c3ccc(Cl)cc3NC(=O)[C@@]12C	-2	-1	x	10	-0.8	3	x	x	x	1.3
CCC(C)[C@H](NC(=O)[C@@H]1Cc2c([nH]c3ccccc23)C2c3ccccc3C(=O)N21)C(=O)N1CCC[C@@H]1C(=O)O (stereo partly specified)	x	x	-28	x	1.3	x	19	x	2.6	-0.2
Cn1c(=O)c2c(nc(N3CCCCC3)n2CCNC2=NCCC2)n(C)c1=O	x	x	-3	x	x	-4	6	-13%&0%	0.5	-0.4
NC(=O)c1nsc(C(=O)N(c2cccc(F)c2)C(C(=O)NCC2CCCO2)c2cccs2)c1N (stereo unspecified)	3	4	5	-2.7	-4.9	x	-4	2%	0.1	0.4
CCCc1cc(=O)oc2cc(OCC(=O)NCC3CCC(C(=O)O)CC3)ccc12 (stereo unspecified)	-11	-8	-1	4.4	-0.5	-4	10	x	9.3	-0.1
COc1ccc(N2CCN(CC(=O)c3ccc(O)c(C)c3O)CC2)cc1	8	-6	4	-0.3	8.0	1	-1	x	1.4	0.4
Cc1cccc(NC(=O)C2CCN(c3nccc(C)n3)CC2)c1	x	x	6	x	x	-3	-66	-8%	-0.9	-0.4
CC(C)OC(=O)CSc1nnc(-c2ccc(Cl)cc2Cl)n1N	x	x	-7	x	x	6	-10	-7%	4.0	-2.1
CCOC(=O)N1CCN(CCC(=O)Nc2cc(OC)cc(OC)c2)CC1	x	x	-12	x	x	4	-5	16%	-1.6	-0.3

# 4 entries already listed, ordered by formula weight, falling:
canonical_smiles	Ecoli rRNA inh OD600	Ecoli rRNA inh	T cruzi inh	Ecoli rRNA inh RFP	MLL AF4-AF9 inh	Beta apoptosis	Calb FLC	Vif A3G	RanGTP-Impb inh	Bfl-1 A1 inh
CCOC(=O)[C@H]1[C@H]2COc3ccc(Br)cc3[C@@H]2N2C(=O)c3ccc(Cl)cc3NC(=O)[C@@]12C	-2	-1	x	10	-0.8	3	x	x	x	1.3
CCSc1nnc(SCC(=O)NC2CCCCC2)s1	0	4	x	0.3	-7.4	-1	x	-4%	x	0.0
O=C(Nc1ccc(F)cc1F)Nc1csc2ccccc12	-45	-40	6	29	x	13	-16	x	-0.8	0.1
CCCCOc1cccc(/C=C(\C#N)C(=O)NC2CC2)c1	x	x	11	x	0.0	0	4	4%	-2.6	1.1

# Other entries follow.
canonical_smiles	Ecoli rRNA inh OD600	Ecoli rRNA inh	T cruzi inh	Ecoli rRNA inh RFP	MLL AF4-AF9 inh	Beta apoptosis	Calb FLC	Vif A3G	RanGTP-Impb inh	Bfl-1 A1 inh
CC1(C)CC(=O)C(C=NCCN2CCOCC2)=C(O)C1	x	x	-19	x	x	-8	1	29%	1.1	0.7
COC(=O)/C(C#N)=C/c1c(Oc2cccc(C)c2C)nc2ccccn2c1=O	13	6	-1	0.1	-3.4	6	-2	-8%	4.0	0.3
COC(=O)c1cc2sccc2n1Cc1ccc(C)cc1	x	x	9	x	x	-15	6	12%	-0.5	-0.9
CCNC(=O)COC(=O)C1CCN(S(=O)(=O)c2ccc3c(c2)OCCO3)CC1	3	19	-6	7.4	-12	x	7	-5%	-2.2	0.0
CN(C)c1ccc(P(=O)(OC2CCCCC2)C(O)c2ccncc2)cc1 (stereo unspecified)	0	7	-8	2.1	0.2	-6	14	8%	-1.5	-0.1
CC1=CCC(Cc2nc3ccccc3o2)C1(C)C (stereo unspecified)	x	x	-3	x	x	-5	-6	2%	0.1	-0.3
COc1cc(C(=O)NCCNC(=O)c2cc(OC)c(C)c(OC)c2)cc(OC)c1C	3	3	-2	1.4	-4.2	-3	10	26%	-0.3	0.6
CCOC(CCNC(=O)c1cc(-c2cccs2)nc2ccccc12)OCC	4	16	1	-1.4	0.6	3	0	-5%	2.8	1.8
Cc1cccc(Cl)c1NC(=S)NCCc1ccccn1	-8	2	-29	-1.6	0.3	x	-9	-8%	-0.7	2.1
CCOc1cc(/C=C(/NC(C)=O)C(=O)O)cc(Cl)c1OCc1cccc(Br)c1	-8	-7	-5	1.2	-17	-1	-4	x	-3.1	0.2
C/C(N)=C(/C#N)C(=O)COC(=O)Cc1coc2ccc3ccccc3c12	-10	-16	-14	-0.3	1.3	-4	28	x	-5.3	0.7
COc1ccc(C(=O)NC(=S)Nc2cccnc2)cc1Cl	5	3	-7	3.4	-2.0	6	19	5%	0.6	-0.1
CCN(CC)CCN1C(=O)C(O)=C(C(=O)c2ccco2)C1c1ccccn1 (stereo unspecified)	x	x	-4	x	x	-5	3	2%	59*	0.1
CCN1CCN(c2ccc(N=Cc3ccc(O)cc3O)cc2)CC1	11	-6	17	4.9	14	-2	-20	-4%	4.1	0.3
CCc1ccc2[nH]c3nc(C)cc(C)c3c(=O)c2c1	x	x	20	x	x	-2	2	u	13	-4.0
COCCn1c(C)cc(C(=O)COC(=O)/C=C/c2ccc(OC)cc2OC)c1C	-8	-3	x	5.1	-0.5	-11	x	1%	x	-0.1
Cc1ccnc(SCCn2c(N3CCN(C)CC3)nc3c2c(=O)n(C)c(=O)n3C)n1	1	5	6	0.1	x	-7	3	28%	9.1	0.6
COCCNC(=O)C(c1ccc(C)cc1)N(Cc1ccco1)C(=O)CCC(=O)Nc1ccccn1 (stereo unspecified)	-1	2	1	1.3	-3.2	2	-6	x	9.4	0.1
O=C(Nc1ccc(F)cc1)c1ccc(CN2CCc3ccccc3C2)cc1	4	0	9	-3.8	-3.6	-2	-2	-6%	-1.7	-3.0
COc1cc2c(cc1OC)CN(C(=O)C1(c3ccccc3)CC1)CC2	3	0	-12	4.9	x	-1	-9	18%	1.1	0.1
COc1ccc(CN(C)CC(=O)NC(C)c2ccccc2)c(OC)c1 (stereo unspecified)	-3	8	0	1.3	2.3	3	-21	-8%	-3.0	1.8
Cc1ccc(S(=O)(=O)NCc2cc(=O)n(C)c(=O)n2C)cc1C	5	5	-13	-4.8	-0.5	-3	0	17%	u	-1.8
CCCOc1ccc(N2C(=O)CC(NCCNc3ccc(S(=O)(=O)CC)cc3)C2=O)cc1 (stereo unspecified)	x	x	-9	x	x	-1	0	3%	-1.3	-0.3
COC(=O)c1cc(C#N)c(Oc2ccccc2)nc1C	x	x	-5	x	x	7	-8	-7%	-0.6	-0.2
COc1ccc(Cl)c2sc(N(CCN(C)C)C(=O)CCS(=O)(=O)c3ccc(C)cc3)nc12	5	3	-4	1.7	0.4	x	-14	-10%	-2.7	-0.2

# 2 of the compounds above, with two lines to a compound:
# Values run as follows: Ecoli rRNA inh OD600, Ecoli rRNA inh, T cruzi inh, Ecoli rRNA inh RFP, MLL AF4-AF9 inh, Beta apoptosis, Calb FLC, Vif A3G, RanGTP-Impb inh, Bfl-1 A1 inh
Cc1nnc(N/N=C/C2CC=CCC2)[nH]c1=O (stereo unspecified)
  18, 17, 0, 0.6, -1.3, x, -11, 9%, 0.5, -0.1
CNC(=O)NC(=O)COC(=O)/C=C/c1cccc(Br)c1
  3, 18, -3, 1.5, 0.6, -4, -13, 3%, -1.3, 0.5

# Additional records:
canonical_smiles	Ecoli rRNA inh OD600	Ecoli rRNA inh	T cruzi inh	Ecoli rRNA inh RFP	MLL AF4-AF9 inh	Beta apoptosis	Calb FLC	Vif A3G	RanGTP-Impb inh	Bfl-1 A1 inh
Cc1ccc(NC(=O)COC(=O)c2ccc([N+](=O)[O-])s2)c(C)c1	11	17	22	-1.6	2.1	-5	13	10%	7.6	1.7
O=C1c2ccccc2NC2CCCCCN12 (stereo unspecified)	4	0	-4	-5.6	x	3	0	23%	0.0	1.3
O=C(NCCCN1CCCC1=O)Nc1ccc(Cl)cc1Cl	6	0	4	-0.3	-5.5	1	2	0%	1.9	-0.2
CCOc1ccc(NC(=O)NCc2cccn2C)cc1	16	8	-2	-0.2	0.1	x	-14	-2%	-0.6	-4.2
O=C(CCCCl)NC1=NN(c2ccccc2)C(=O)C1	-15	-14	x	-1.6	6.1	0	x	8%	x	0.2
CC1CSc2ccccc2NC1=S (stereo unspecified)	x	x	-16	x	x	-6	-3	0%	-3.3	-0.4
C=CCn1c(=O)c2ccccc2n2nnc(C(=O)OCC)c12	-2	4	-4	-1.4	-0.6	-4	-1	1%	1.3	2.0

# Assay outcomes deposited in PubChem by several laboratories.

# Not all compounds are listed (hit frequency here may not be typical).
